# TRPML1 agonist: agonists of human TRPML1 channel | Q9GZU1 | TRPML1-expressing cells, Ca2+ dye fluorescence, FDSS; host cell line not named in the record; reference of the full effect not given here | activation, % (no concentration beside the values) | 410,000 compounds, 0.12% hits; in the data active = activation above about 50%; inconclusive = about 30% to 50%; inactive = below about 30%; also: 0% is about no effect; the text of the record puts the active cut at 80%
#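 Agonist activity was taken from a 110 s kinetic Ca2+ dye read on the FDSS after pinning compounds onto TRPML1-DL cells. The cells were seeded at 1,500/well with Tet inducer, incubated about 16 h, then dye-loaded at room temperature.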
# TRPML1 blocker: human mucolipin-1 channel inhibition. Q9GZU1. TRPML1-inducible cells, Ca2+ dye fluorescence, FDSS; active compounds read low; inhibition of EC80 agonist-evoked calcium signal. activity change, negative = inhibition, % (concentration not given with the values). 390,000 compounds, 0.02% hits; in the data active means activity change below about -50%; inconclusive means about -30% to -50%; inactive means above about -30%;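 also: stimulus is agonist 54-4 at its EC80 concentration; % is scaled to controls: 0 for no effect and ±100 for the full control effect; the text of the record puts the active cut at -80%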
#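 TRPML1-DL cells, Tet-induced overnight (~16 h, 37 °C) at 1,500 cells/well, were loaded with Ca8 no-wash dye plus quencher for 45-90 min at room temperature. Compounds were pinned during FDSS kinetic reading; agonist 54-4 at EC80 (4 uM final) then added.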
# D2 potentiator: human D2 receptor positive allosteric modulation; P14416; DiscoveRx D2 beta-arrestin cells, luminescence, 90 min; 100% = 57 uM dopamine signal; potentiation, % (test concentration not listed); 360,000 compounds, 0.23% hits; AID 624464; active = potentiation of 50% or more; inconclusive = 30% to 50%; inactive = 30% or less;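 also: compound concentration not given in the record; tested on top of an EC20 dose of dopamine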
#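 D2 cells co-treated with compound plus 50 nM dopamine (EC20) for 90 min at 37 deg C to detect potentiation. Beta-arrestin recruitment was read as enzyme-fragment luminescence after 1 h at ambient temperature. Full response was set by 57 uM dopamine.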
# Six1-Eya2 inh: inhibitors of human Six1/Eya2 interaction. Q15475+O00167. AlphaScreen GST-Six1/His-Eya2 binding, biochemical; active compounds read low; control for the full effect not named in the record. activity change, % (no concentration beside the values). 360,000 compounds, 0.56% hits; in the data active = activity change below about -65%; inconclusive = about -30% to -65%; inactive = above about -30%; also: % is scaled to controls: 0 for no effect and ±100 for the full control effect
#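 AlphaScreen luminescence read after one hour at 37 °C in darkness. Pin-transferred compounds met GST-Six1 and His-Eya2 protein (5X stock 250 nM/500 nM) plus glutathione donor and Ni-chelate acceptor beads (5X, 50 ug/mL).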
# CtBP-E1A blk: blocks the CtBP interaction with E1A | 340,000 compounds, 0.49% hits | activity change, % (concentration not given with the values) | AlphaScreen GST-E1A/His-CtBP binding, 1536-well; active compounds read low; control for the full effect not named in the record; in the data active means activity change below about -65%; inconclusive means about -30% to -65%; inactive means above about -30%; also: % is scaled to controls: 0 for no effect and ±100 for the full control effect
#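 Homogeneous bead-based format: GST-tagged E1A captured on glutathione donor beads, His-tagged CtBP on nickel acceptor beads; compounds precede bead addition by 2 h at 37 °C.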
# TRPV1 PAM: human TRPV1 potentiation; AID 540277; 320,000 compounds, 0.02% hits; TRPV1-expressing cells, Fluo-8 calcium influx, capsaicin EC20 potentiation; host cell line not named in the record; control for the full effect not named in the record; potentiation, % at 8.33 µM; Q8NER1; active means potentiation above 80%; inconclusive means 30% to 80%; inactive means below 30%; also: 0% is about no effect
# Target sequence (Q8NER1 whole entry, looked up): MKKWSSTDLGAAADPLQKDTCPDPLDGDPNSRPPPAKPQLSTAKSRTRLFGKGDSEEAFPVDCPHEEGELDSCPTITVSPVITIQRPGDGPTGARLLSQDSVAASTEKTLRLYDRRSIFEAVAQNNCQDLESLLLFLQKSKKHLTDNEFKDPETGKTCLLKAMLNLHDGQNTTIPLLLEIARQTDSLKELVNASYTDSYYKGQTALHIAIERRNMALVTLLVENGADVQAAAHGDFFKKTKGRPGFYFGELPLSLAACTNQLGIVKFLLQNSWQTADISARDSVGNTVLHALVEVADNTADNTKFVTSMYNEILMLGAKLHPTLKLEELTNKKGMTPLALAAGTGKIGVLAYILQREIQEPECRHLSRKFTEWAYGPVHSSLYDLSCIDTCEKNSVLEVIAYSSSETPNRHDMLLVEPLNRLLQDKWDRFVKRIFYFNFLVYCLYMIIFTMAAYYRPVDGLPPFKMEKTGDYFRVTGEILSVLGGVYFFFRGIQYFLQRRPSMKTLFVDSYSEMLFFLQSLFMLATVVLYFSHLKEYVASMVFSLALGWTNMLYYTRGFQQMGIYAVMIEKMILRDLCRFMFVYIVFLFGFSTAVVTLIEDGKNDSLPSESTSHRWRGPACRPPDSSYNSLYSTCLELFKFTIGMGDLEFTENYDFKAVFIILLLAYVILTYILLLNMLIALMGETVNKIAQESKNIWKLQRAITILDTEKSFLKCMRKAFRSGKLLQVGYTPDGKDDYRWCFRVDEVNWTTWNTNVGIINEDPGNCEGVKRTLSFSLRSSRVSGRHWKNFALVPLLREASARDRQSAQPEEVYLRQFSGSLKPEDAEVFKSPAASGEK
#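 Fluo-8 calcium influx in TRPV1-expressing cells, kinetic read (ex 480/em 520 nm). Compound added and read 3 min for agonist activity, followed by capsaicin at EC20 final and 2 min further read for enhancement.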
# * hit, by the source's call; u = inconclusive; x = not tested or not shown.
No.	smiles	TRPML1 agonist	TRPML1 blocker	D2 potentiator	Six1-Eya2 inh	CtBP-E1A blk	TRPV1 PAM
1	CCC(=O)Nc1ccc(C(=O)NNC(=O)c2ccc([N+](=O)[O-])cc2)cc1	-0.7	3	-3	4	7	-5
2	CCCCCCCCCC(=O)N/N=C/c1ccc(C)s1	2.4	7	-1	5	-1	-10
3	O=C(O)/C=C/c1ccc(S(=O)(=O)NCc2ccco2)cc1	1.2	-5	-5	11	7	5
4	N#C/C(=C(/O)c1ccc([N+](=O)[O-])cc1)c1nc2ccccc2[nH]1	-0.5	10	-27	12	-15	-8
5	O=C1NC[C@H](Cc2ccccc2)N(C[C@@H]2CCCN2C[C@H](Cc2ccc(O)cc2)N2C[C@H](Cc3ccccc3)N(CC3CCCCCC3)C(=O)C2=O)C1=O	-0.3	x	x	7	-18	x
6	CCC(C)/C(C)=N/NC(=O)c1ccc(COc2ccc(Cl)c(C)c2)cc1 (configuration not stated)	1.3	5	-15	-5	15	-19
7	Cc1ccc(C)c(S(=O)(=O)N2CCN(C(=O)CNC(=O)c3sc4ccccc4c3Cl)CC2)c1	-0.5	-9	1	0	1	x
8	Cc1ccc(-n2c(C)cc(/C=N/NC(=O)CN(c3ccc(C)cc3C)S(C)(=O)=O)c2C)cc1	-1.0	-1	-31	-28	-24	8
9	COc1ccc(/C=C(/C#N)C(=O)Nc2ccccc2C)cc1C(=O)O	-0.3	-1	-4	-15	-11	-1
10	CCS(=O)(=O)Nc1cccc(C2=NN(S(=O)(=O)c3ccc(F)cc3)C(c3cccs3)C2)c1 (configuration not stated)	1.3	-11	-6	-21	-18	-6
11	COc1ccc(C2/C(=C(/O)c3ccccc3)C(=O)C(=O)N2CCCN2CCOCC2)cc1 (configuration not stated)	x	x	9	3	x	18
12	CSc1cccc(NC(=S)N(CCC(C)C)C2CCN(C(C)C)CC2)c1	-0.4	2	-11	-15	-3	-22
13	CN(C)S(=O)(=O)N1C(=O)c2ccccc2C1=O	-0.3	10	-1	2	x	-4
14	Cn1ccnc1CC(O)(c1ccccc1)c1ccccc1	-0.4	0	-3	-8	0	-13
15	S=C(NCc1ccco1)N1CCN(c2ccccc2Cl)CC1	-0.6	5	-5	-2	-2	-8
16	CCn1c2ccccc2c2cc(NC(=O)c3ccccc3[N+](=O)[O-])ccc21	1.2	1	-18	-23	3	0
17	N/C(=N\OC(=O)CC1CCCCC1)c1ccc(Br)cc1	0.7	23	22	7	18	-5
18	O=C1NCCN1CCNS(=O)(=O)c1ccc(F)c(Cl)c1	1.2	35	-2	1	x	3
19	CCC(=O)N1CCN(c2ccc(NC(=O)c3c(F)c(F)c(OC)c(F)c3F)cc2)CC1	1.8	-6	-2	9	17	-8
20	Cc1ccc(C(=O)CCC(=O)Nc2cccc(C(F)(F)F)c2)cc1C	1.2	-8	-5	5	11	x
21	N/C(=N\OC(=O)Cc1ccccc1[N+](=O)[O-])c1ccccn1	-0.9	5	21	-3	0	-4
22	COc1ccc(NC(=O)CNc2ccc(OC)c(S(=O)(=O)N3CCOCC3)c2)cc1	0.3	-3	-10	1	1	x
23	NS(=O)(=O)c1ccc(CCNC(=O)/C=C/c2cccc([N+](=O)[O-])c2)cc1	0.6	-13	-1	1	-18	-2
24	CCn1c(=O)c2[nH]c(Cl)nc2n(CC)c1=O	-0.9	6	3	1	4	x
25	Cc1ccc(C(=O)N2CCC(C(=O)NCc3cccnc3)CC2)cc1	-0.2	10	-3	0	-3	-5
26	CCOC(=O)C1=C(COc2ccccc2)NC(=O)NC1c1ccc(Cl)cc1 (configuration not stated)	-0.2	8	-7	-2	3	-16
27	Cc1ccccc1-c1nn(-c2ccc(F)cc2F)cc1CNCCCN(C)C	2.3	25	-10	1	-6	-1
28	CCC1SC(CC)C(=O)N(CC(=O)NCc2ccc(F)cc2)C1=O (configuration not stated)	0.0	12	-5	0	2	26
29	CCOC(=O)c1sc2ccccc2c1OC(=O)c1ccccc1OC	4.4	21	-21	24	x	8
30	CCCN(CC(=O)Nc1ccccc1C)C(=O)Cc1c(C)nc2ccccc2c1C	0.5	-1	-5	-1	1	-3

# Looked up by compound from the list above:
No.	smiles	TRPML1 agonist	TRPML1 blocker	D2 potentiator	Six1-Eya2 inh	CtBP-E1A blk	TRPV1 PAM
27	Cc1ccccc1-c1nn(-c2ccc(F)cc2F)cc1CNCCCN(C)C	2.3	25	-10	1	-6	-1
25	Cc1ccc(C(=O)N2CCC(C(=O)NCc3cccnc3)CC2)cc1	-0.2	10	-3	0	-3	-5

# Additional structures:
No.	smiles	TRPML1 agonist	TRPML1 blocker	D2 potentiator	Six1-Eya2 inh	CtBP-E1A blk	TRPV1 PAM
31	COc1ccc(OC)c(C2C3CN(C(C)C)CC=C3C(C#N)=C(N)C2(C#N)C#N)c1 (configuration not stated)	5.0	-3	-49	-6	-8	1
32	O=C1c2ccccc2C(=O)N1CCc1c(-c2[nH]c3ccccc3c2CCN2C(=O)c3ccccc3C2=O)[nH]c2ccccc12	-0.1	-4	x	-1	5	x
33	COc1ccc(-n2c(-c3cccc(C)c3[N+](=O)[O-])n[nH]c2=S)cc1	3.6	-4	0	-16	-10	11
34	CCc1cc2c(CN3CCN(C)CC3)cc(=O)oc2cc1O	-0.7	-2	-32	-1	-2	1
35	CC(O)(c1ccc(F)c(F)c1)c1nc(/C=C/c2ccc(C(F)(F)F)cc2)cs1 (configuration not stated)	1.6	x	3	6	5	x
36	N#Cc1ccc(-c2nc3c4ccccc4ccn3c2Cc2ccccc2C(F)(F)F)cc1	1.1	-5	-2	9	8	x
37	CC(=O)c1ccc(S(=O)(=O)N2CCN(C(=O)c3ccc(COc4ccccc4)o3)CC2)cc1	1.2	1	-22	-8	0	-3
38	O/N=C/c1ccnc(SCc2ccc(Cl)cc2)n1	0.7	11	-5	-10	4	x
39	CC1(C)SC(=S)N(NC(=O)Nc2cccc3ccccc23)C1N(O)C(=O)Nc1ccccc1 (configuration not stated)	1.4	8	0	-17	-18	-14
40	CNc1cc(-c2cnn(CC(C)C)c2)ncn1	-0.7	x	-2	0	2	x
41	Cc1ccccc1OCC(=O)N/N=C/c1ccccn1	1.8	14	1	-3	-1	4
42	NNC(=O)COc1ncn(-c2ccccc2)n1	-1.0	2	4	9	-2	-29
43	O=C(NC(NNc1ccc([N+](=O)[O-])cc1)(C(F)(F)F)C(F)(F)F)c1ccccc1Cl	0.3	-1	u	-17	-13	8
44	O=C(COc1cccc2cccnc12)Nc1ccccc1N1CCOCC1	1.9	32	8	0	-2	-31
45	CC(C)Cc1csc(NC(=O)c2ccc(F)cc2)c1C(=O)O	-0.8	-7	-3	2	2	-1
46	CCCCc1ccc(NC(=S)Nc2ccc(Cl)c(S(=O)(=O)N(C)C)c2)cc1	0.0	-24	12	-14	1	-8
47	CCOc1ccc(NC(=S)NC(=O)c2c(Cl)cnn2CC)c([N+](=O)[O-])c1	2.1	24	-30	-16	-16	12
48	CC#CCCC(=O)N1C=Cc2ccccc2C1C#N (configuration not stated)	-1.3	-4	-1	2	9	-5
49	CN1CCN(c2ccc([N+](=O)[O-])cc2/C=N/NC(=O)c2ccc(F)cc2)CC1	0.4	10	-29	-5	-3	-15
50	CCN(C(=O)CSc1nnc(-c2ccc3c(c2)OCO3)o1)C1CCS(=O)(=O)C1 (configuration not stated)	1.3	-2	-11	5	-14	0
51	COc1ccccc1NC(=O)N1CCN(S(C)(=O)=O)CC1	1.9	15	-5	13	x	-2
52	Nc1ccc(-c2cc(N)n(-c3ccccc3)n2)cc1	-1.2	-11	-1	-1	-2	2
53	O=[N+]([O-])c1ccc(N2CCOCC2)c(S(=O)(=O)N2CCOCC2)c1	-0.2	4	-3	-2	0	0
54	Cc1noc(C)c1C(c1ccccc1)c1ccccc1	0.4	-11	-4	17	28	23
55	CN(N=Cc1ccccc1O)c1ccc2ccccc2n1	1.6	-18	0	1	16	x
56	Cc1nn(Cc2ccccc2)c(C)c1C(=O)N1CCN(CC(=O)Nc2ccc(F)cc2)CC1	-0.5	3	-3	0	x	-7
57	CCCCCCCCCCCCN1[C@@H](CC(C)=O)c2cc(C(F)(F)F)ccc2S1(=O)=O	-0.4	-14	-2	1	8	x
58	CC(=O)c1ccc(N=c2scc(C)n2C(C)C)cc1	1.0	1	-3	-2	5	-10
59	Cc1cc(C=O)c(O)cc1O	-1.1	-8	9	30	0	-4
60	Cc1nc(-c2cccc(NC(=O)c3ccc(Cl)c(S(=O)(=O)N4CCCC4)c3)c2)cs1	0.9	21	-18	-6	-14	x

# (next part)
No.	smiles	TRPML1 agonist	TRPML1 blocker	D2 potentiator	Six1-Eya2 inh	CtBP-E1A blk	TRPV1 PAM
61	O=c1[nH]c2cccnc2n(CCNc2ncc(C(F)(F)F)cc2Cl)c1=O	0.0	-23	-3	5	-2	-5
62	Cc1ccc(C(=O)N2CCOCC2)c(F)c1F	0.5	-15	-4	10	x	0
63	O=C(Nc1cccc(/C=C/c2ccccn2)c1)c1cc(Cl)ccn1	0.4	-1	-8	-4	-7	0
64	CC(OC(=O)c1cccc(-n2cnnn2)c1)c1nc2ccccc2c(=O)[nH]1 (configuration not stated)	-0.6	-4	-7	0	-7	2
65	CC(Sc1nnc(N)s1)c1ccccc1Cl (configuration not stated)	0.3	29	0	0	4	-2
66	O=C1c2ccccc2C(=O)N1c1cccnc1	0.1	-8	-15	2	1	-9
67	Cc1ccccc1NC(=O)C(=O)NCCCN1CCOCC1	-1.0	21	-1	-2	1	10
68	O=C(CSc1nc2nn(-c3ccccc3)c(=O)c-2c2n1CCCCC2)Nc1cccc(F)c1	1.3	8	-2	-28	-12	x
69	CCOC(=O)C(CC)Sc1ncnc2nc[nH]c12 (configuration not stated)	0.7	6	3	1	5	-6
70	Cc1noc(C)c1S(=O)(=O)Nc1ccc(C(=O)N2CCc3ccccc3C2)cc1	-0.5	-3	-3	0	-2	4
71	C=C(C)C(=O)Nc1cccc(C2=NOC3(C2)C[C@@H](C(N)=O)N(C(=O)/C(C)=C/C)C3)c1 (some centres not stated)	0.2	0	5	-9	x	-5
72	NS(=O)(=O)c1ccc(NC(=O)c2ccc(COc3ccccc3)o2)cc1	-0.9	-6	-7	3	0	-20
73	CN(c1ccccc1C(=O)Nc1cccc(Cl)c1Cl)S(C)(=O)=O	-0.7	14	-11	5	-2	-7
74	O=C(N(c1ccccc1)c1ccccc1)N(c1ccccc1)c1ccccc1	1.2	22	-20	-5	x	-5
75	CN(CC1CCN(CCc2cccc(C(F)(F)F)c2)CC1)C(=O)c1ccc(F)cc1	-0.4	43	-26	3	5	0
76	NNC(=O)c1ccc(S(=O)(=O)N2CCc3ccccc32)cc1	-0.5	-22	-33	7	4	-1
77	COc1cc(=O)[nH]c(=O)n1CC(=O)c1ccccc1	-0.6	-12	-15	2	4	-9
78	CCCn1nnc(NC(=O)Cc2ccccc2)n1	0.2	1	26	3	-3	9
79	CC1=CC(=C2N=C(c3ccccc3)OC2=O)C=C(C)O1	-1.4	-5	-7	5	-9	-8
80	Nc1ncccc1OCc1cccc(C(F)(F)F)c1	4.2	2	2	-4	-4	2
81	CCn1c(SCC(=O)N/N=C/c2ccccc2OCC(=O)O)nnc1-c1ccc(C)cc1	1.9	1	-9	3	-2	2

# Along the list, quoted from above.
# TRPML1 blocker, compounds 73 to 79 → 14, 22, 43, -22, -12, 1, -5

# Screens as filed in PubChem.

# The order is random; overall some 0.95% were active at least once.
